# NPYLR7 ag: agonists of mosquito NPYLR7 receptor, primary screen, cell-based, Aedes aegypti, calcium fluorescence, mosquito biting behavior; Aedes aegypti neuropeptide Y-like receptor 7 (NPYLR7); HEK293T NPYLR7/Galpha15, GCaMP6s calcium fluorescence; activation, % at 10 µM; 270,000 compounds, 0.15% hits; AID 1259423, 2018; in the data active = activation above about 40%;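 also: 0% = vehicle and 100% = reference agonist at the receptor; some compounds past the cut are filed as inactive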
# NPYLR7 ag max-min: further read-out of NPYLR7 ag, marked with its call; activation, %; measured here: Max-Min RFU normalised activation; some inactives read as strong as hits;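 span of the calcium signal over five minutes; 0% = vehicle and 100% = native peptide agonist; compound fluorescence can raise it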
# An asterisk follows results filed as active; & = joins results of further samples. This is a subset; rates above refer to the full screens.
SMILES,NPYLR7 ag,NPYLR7 ag max-min
Cc1ccc(Cl)c(OC2CC3CCC(C2)N3C(=O)c2ccc(CSc3nnc(C)s3)cc2)c1 (stereo unspecified),13.9,8.7
CN(CC(O)Cc1ccccc1)CC1CC(c2ccc(Cl)cc2)=NO1 (stereo unspecified),-1.8,4.4
CC1=CC[C@@H]2CN(C(=O)C3(S(=O)(=O)c4ccccc4)CC3)C[C@@H]2C1,0.9,-0.2
CCOC(=O)C1CCN(C(c2ccc(OC)c(OC)c2)C2Sc3ncnn3C2=O)CC1 (stereo unspecified),11.2,5.2
COc1ccc(-c2cn3c4ccccc4n(CCN4CCCCC4)c3n2)cc1OC,-3.4,-6.5
CCOC(=O)N1CCN(C(=O)c2cc(-c3ccccc3Cl)nc3cc(C(C)(C)C)nn23)CC1,17.2,22.0
O=C1OC(c2cccc(F)c2)=N/C1=C\C=C\c1ccccc1,-1.5,-2.8
COCCCNC(=O)c1ccccc1N1CCC(NC(=O)c2ccc([N+](=O)[O-])cc2)CC1,-4.9,0.0
CCCn1ccc2ccc(NC(=O)Cc3csc(C(C)C)n3)cc21,-5.6,-6.0
CCC(C)NC(=O)CN1CN(c2ccccc2)C2(CCN(C(=O)Nc3ccc(SC)cc3)CC2)C1=O (stereo unspecified),13.9,18.5
Cc1cnc(C(=O)N2CCN(Cc3ccc(-c4noc(C5CCCC5)n4)cc3)CC2)cn1,3.9,4.3
Cc1ccc(/C=C2N=C(/C=C\c3cccc([N+](=O)[O-])c3)OC/2=O)cc1,4.7,-2.2
CCOc1cc(C(=O)N2CCOC(COCc3c(Cl)cccc3Cl)C2)ccc1OC (stereo unspecified),-3.3,-8.6
COc1cc2c(cc1OC)CN(S(=O)(=O)c1ccc(OC)c(N3CCN(C(=O)C(OC(C)=O)c4ccccc4)CC3)c1)CC2 (stereo unspecified),24.1,13.0
N#C/C(=C\c1ccc(-c2ccccc2Br)o1)C(=O)N1CCOCC1,-13.9,-11.6
CC(NC(=O)C1CCN(CCOc2ccccc2)CC1)c1ccc(F)cc1 (stereo unspecified),5.2,3.5
C[C@H](Nc1nccn2ccnc12)c1ccccc1,2.9,-0.7
CN1OCC(S(=O)(=O)NCCc2ccccc2)C1c1ccc(Cl)cc1 (stereo unspecified),3.4,-0.5
Cc1nonc1CN(C)Cc1ccccc1OCC(O)CN(C)C1CCCCC1 (stereo unspecified),3.3,-0.7
CC(=O)Cn1cc(C#N)c(=O)c2cc(Br)ccc21,11.9,9.2
C=CCN1C(=O)C(=Cc2ccc(OC)c(OC)c2OC)SC1=S,10.7,2.0
CCN(CC)C(=O)[C@@H]1C[C@H](N)CN1C(=O)c1nccn1C,28.2,17.2
CCOC(=O)[C@@H]1[C@@H](O)C(=O)N(Cc2ccccc2)C12CCN(C(=O)CCc1ccccc1)CC2,23.7,39.5
CNc1cc(-c2ccc3c(c2)CCO3)ncn1,3.0,1.5
CCOC(=O)N1CCN(C(=O)CSc2nccc3c(OC)cccc23)CC1,-4.2,-5.7
Cc1nnc(CN2CCCC(N3CCCC3=O)C2)s1 (stereo unspecified),5.7,2.0
c1ccc2c(c1)nnn2CN1CCCCC1,8.5,7.8
CC(C)NC(=S)N[C@H]1CCCCNC1=O,-0.1,-6.9
Cc1ccc(-c2nc(CNC(=O)[C@@H]3CCC[C@H](N)C3)[nH]c2-c2ccccn2)cc1,11.5,5.2
Cc1nc2n(CC(=O)O)c3ccccc3n2n1,11.1,0.4
O=C(CN(Cc1ccco1)C1CCS(=O)(=O)C1)Nc1cc(Cl)cc(Cl)c1 (stereo unspecified),-3.4,-4.1
O=C(C1CCCC1)N1CCCC(c2nc3ccccc3s2)C1 (stereo unspecified),-0.6,3.4
O[C@@H]1CN(Cc2cc3n(n2)CCNC3)CC[C@H]1c1ccc2c(c1)OCO2,9.9,5.7
O=C1CCc2cc3c(cc21)OCO3,6.2,0.4
C=CCOCC(O)CN(CC(=O)N1CCc2sccc2C1COc1ccccc1OC)C1CC1 (stereo unspecified),3.8,3.0
COc1ccc(C2=Nc3nnnn3C(c3ccc(OC)cc3)C2)cc1 (stereo unspecified),2.1,2.0
Cc1ccccc1CN(CCO)Cc1ccco1,13.5,1.8
Cc1nc(-c2ccc(NC(C)C(=O)Nc3ccc(F)c(F)c3)cc2)cs1 (stereo unspecified),-0.3,-0.8
COc1cccc(NC(=O)C2CC=CCC2C(=O)N2CCC(C#N)(c3ccccc3)CC2)c1 (stereo unspecified),9.3,0.6
c1cc2c(cc1-c1nc3sc(-c4ccc5c(c4)OCO5)nc3s1)OCO2,13.5,6.0
O=C1Oc2ccccc2C(=O)C1=CN1CCCCC1,7.3,13.8
Cc1nc2sccn2c1C(=O)N1C[C@@H]2[C@H](C1)[C@H]1CC[C@@H]2O1,0.1,5.8
COC(=O)n1c(=S)oc2cc(Cl)ccc21,10.1,4.7
Cc1c(C)c2c(c(C)c1O)CC[C@@](C)(CCC[C@H](C)CCC[C@H](C)CCCC(C)C)O2,-9.5,-10.2
COc1ccc2nc(N(CCCn3ccnc3)C(=O)c3cccc(OC)c3OC)sc2c1,-12.7,-19.7
CCOC(=O)C1=C(C)N=c2s/c(=C\c3cc(Br)ccc3OC(C)=O)c(=O)n2C1c1cccs1 (stereo unspecified),10.0,17.0
COC(=O)c1ccc(Cl)c(NC(=O)c2ccccc2C)c1,-5.1,-6.6
O=[N+]([O-])c1ccc(C=NNc2ncc(C(F)(F)F)cc2Cl)o1,4.4,3.6
Cc1oc(-c2ccc(OC(C)C)cc2)nc1CSc1nc(-c2ccncc2)cc(=O)[nH]1,-0.3,-4.2
COc1ccc(-c2nc3ccc(C)cn3c2Nc2c(C)cccc2C)cc1OC,7.0&1.0,8.4&6.4
Fc1ccc2nc3c(nc2c1)c1ccccc1n3Cc1csc(-c2ccc(Cl)cc2)n1,-4.4,-9.6
O=C(NC(=S)N(CCO)Cc1ccccc1)c1ccc(F)cc1Cl,0.1,0.1
O=C(N=Nc1c(O)[nH]c2ccc(Br)cc12)c1cccnc1,-1.2,-9.9
CC(NC(=O)CC(N)c1ccccc1)c1ccc(Cl)s1 (stereo unspecified),1.1,-0.2
CCOc1ncccc1C(=O)N1CCCC2(CNC(=O)O2)C1 (stereo unspecified),8.6,6.9
CNC(=O)C(C)Sc1ccc(C)c(C)c1 (stereo unspecified),9.9,1.9
CC(=O)NC1CCCN(c2ccc(C#N)cc2C(F)(F)F)C1 (stereo unspecified),0.1,1.1
c1ccc(-n2nccc2CN2CCN(c3ncnc4ccccc34)CC2)cc1,-1.3,1.9
CCc1csc(CNC(=O)c2cnc(C(C)C)[nH]c2=O)n1,-6.5,-6.6
CN(C)CCN(Cc1ccc(F)c(F)c1)C(=O)NCc1ccncc1,-0.5,19.1

# Fetched one by one from above, three records:
SMILES,NPYLR7 ag,NPYLR7 ag max-min
c1ccc(-n2nccc2CN2CCN(c3ncnc4ccccc34)CC2)cc1,-1.3,1.9
O=C(NC(=S)N(CCO)Cc1ccccc1)c1ccc(F)cc1Cl,0.1,0.1
Cc1c(C)c2c(c(C)c1O)CC[C@@](C)(CCC[C@H](C)CCC[C@H](C)CCCC(C)C)O2,-9.5,-10.2

# Other results:
SMILES,NPYLR7 ag,NPYLR7 ag max-min
CC(C)(C)c1cc(N2CCCC2)nc(SCc2cccc(C(=O)NC3CC3)c2)n1,24.2,20.0
Cc1nnc(CN(C)C(=O)CC(c2ccccc2)c2ccc(Cl)cc2)o1 (stereo unspecified),-2.4,-4.2
Cc1nc2ncc3c(=O)n(N)ccc3n2n1,0.1,-1.6
CC(Oc1ccccc1F)C(=O)N1CCC(C(N)=O)CC1 (stereo unspecified),1.2,-0.8
Cc1cccc(-c2ncc(CN3CCCC(CO)(Cc4cccc(Cl)c4)C3)cn2)c1 (stereo unspecified),26.9,24.7
Cc1cc(CN(C)CC2CCN(CCc3ccccc3F)CC2)cc(C)c1O,-1.0,-4.2
CCN(CC1CCOCC1)C(=O)c1cnccc1C,-1.4,0.2
OCCN1CCN(c2cnc(-c3cccc4ccccc34)cn2)CC1,-1.0,-2.4
CCN(CC)c1ncccc1CNC(=O)C1CCc2ccccc2O1 (stereo unspecified),0.0,-3.0
Cc1cc(C)c(CNCc2ccc3c(c2)CC(C)O3)c(C)c1CO (stereo unspecified),-1.1,-5.2
Cc1ccccc1C1c2ccsc2CCN1C(C)C(=O)N1CCN(C(=O)c2cccc([N+](=O)[O-])c2)CC1 (stereo unspecified),-0.4,-8.2
CCOC(=O)C1=C(C)N=c2sc(=Cc3ccc(C)o3)c(=O)n2C1c1cccs1 (stereo unspecified),0.4,-4.2
Cc1ccc(C)c(S(=O)(=O)N2CCN(c3nn(C)c(=O)n(C)c3=O)CC2)c1,0.3,-1.3
CCOC(=O)c1c[nH]c2c(Cl)cc(Cl)cc2c1=O,-1.5,1.2
O=C(N=C1N=C2C=CC(Cl)=CN2Cc2ccccc21)c1ccc(Br)o1,-0.2,-0.1
O=C(c1cn(Cc2ccccc2)cc2c(=O)n(-c3ccccc3)nc1-2)N1CCc2ccccc21,4.3,1.1
Cn1ccnc1SCC(=O)Nc1ccc(F)cc1,1.6,3.4
Cc1cccc2c1NC(=O)C2CC(=O)N1C[C@H]2CC=CC[C@H]2C1 (stereo partly specified),2.0,0.9
CCOC(=O)C1CCCN(S(=O)(=O)c2cn(C)c(=O)n(C)c2=O)C1 (stereo unspecified),-0.8,-4.2
Cc1c(=O)n(OCc2ccccc2F)c2ccccc2[n+]1[O-],-3.1,-4.8
COCCN1CCCC[C@]2(C[C@H](CO)[C@H](c3ccccc3)N2C(=O)NCc2ccccc2)C1=O,6.5,10.1
Cc1ccc(CNC(=O)CN2CCc3sccc3C2C)cc1 (stereo unspecified),0.1,-1.3
CN(Cc1ncccc1C(=O)O)Cc1n[nH]c2c1CCCC2,8.4,6.5
CCc1c(C)nc(-c2cccc(C)c2)nc1N1CCN(C(=O)c2ccccc2OC)CC1,5.0,5.8
NC(N)=NC(N)=Nc1cc(Cl)cc(Cl)c1,0.4,-0.3
COc1cc2c(cc1OC)CN(C(=O)C1COc3ccc(Cl)cc3C1)CC2 (stereo unspecified),-1.6,-2.4
Oc1ccc(N=Cc2ccc[nH]2)cc1N=Cc1ccc[nH]1,11.7,8.9
Cc1ccccc1SCC(=O)N1CCC2(CCNCC2)CC1,7.0,2.8
CCOC(=O)c1cc(-c2ccc(N3CCN(C(=O)c4cnn(C)c4Cl)CC3)cc2)n(-c2ccc(OC)cc2)n1,3.6,-1.5
Cc1c(NCc2noc3c2CCCC3)cccc1C(=O)NCCO,0.7,0.8
O=C(Cn1[nH]c(=O)ccc1=O)N1CC[C@@H](c2ccc3ccccc3c2)[C@H](O)C1,4.8,-1.9
Cc1ccc(Cn2c(=O)c3c(nc4n(CCN5CCOCC5)c(C)cn34)n(C)c2=O)cc1,7.8,5.3

# In the list so far, these have fluorine:
SMILES,NPYLR7 ag,NPYLR7 ag max-min
O=C1OC(c2cccc(F)c2)=N/C1=C\C=C\c1ccccc1,-1.5,-2.8
CC(NC(=O)C1CCN(CCOc2ccccc2)CC1)c1ccc(F)cc1 (stereo unspecified),5.2,3.5
Cc1nc(-c2ccc(NC(C)C(=O)Nc3ccc(F)c(F)c3)cc2)cs1 (stereo unspecified),-0.3,-0.8
O=[N+]([O-])c1ccc(C=NNc2ncc(C(F)(F)F)cc2Cl)o1,4.4,3.6
Fc1ccc2nc3c(nc2c1)c1ccccc1n3Cc1csc(-c2ccc(Cl)cc2)n1,-4.4,-9.6
O=C(NC(=S)N(CCO)Cc1ccccc1)c1ccc(F)cc1Cl,0.1,0.1
CC(=O)NC1CCCN(c2ccc(C#N)cc2C(F)(F)F)C1 (stereo unspecified),0.1,1.1
CN(C)CCN(Cc1ccc(F)c(F)c1)C(=O)NCc1ccncc1,-0.5,19.1
CC(Oc1ccccc1F)C(=O)N1CCC(C(N)=O)CC1 (stereo unspecified),1.2,-0.8
Cc1cc(CN(C)CC2CCN(CCc3ccccc3F)CC2)cc(C)c1O,-1.0,-4.2
Cn1ccnc1SCC(=O)Nc1ccc(F)cc1,1.6,3.4
Cc1c(=O)n(OCc2ccccc2F)c2ccccc2[n+]1[O-],-3.1,-4.8
